CSC inhib: blocks cancer stem cells; cancer stem cell-like cells viability, luminescence; inhibition, % at 7.5 µM; hit rate 1.1% among 300,000;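 active = mean at 75% or more and at least half the replicates too; inconclusive = mean and replicates disagree; tested in HMLE shEcad cells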;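 note: 0% = median of negative and 100% = median of positive control wells; the first replicate is given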
Rce1 inh: blocks yeast Ras-converting enzyme. hit rate 0.27% among 290,000. yeast membranes, quenched prenylated peptide cleavage fluorescence. calls only. AID 2563;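 active = fall in fluorescence gain of 50% or more versus controls, with final raw signal at or below 3038400; inconclusive = same 50% fall but final raw signal above 3038400; inactive = fall in fluorescence gain under 50%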;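 note: plate controls were neutral control wells for no effect and wells lacking membranes for full effect; tested at 10 µM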
Target sequence (Q03530 whole entry, looked up): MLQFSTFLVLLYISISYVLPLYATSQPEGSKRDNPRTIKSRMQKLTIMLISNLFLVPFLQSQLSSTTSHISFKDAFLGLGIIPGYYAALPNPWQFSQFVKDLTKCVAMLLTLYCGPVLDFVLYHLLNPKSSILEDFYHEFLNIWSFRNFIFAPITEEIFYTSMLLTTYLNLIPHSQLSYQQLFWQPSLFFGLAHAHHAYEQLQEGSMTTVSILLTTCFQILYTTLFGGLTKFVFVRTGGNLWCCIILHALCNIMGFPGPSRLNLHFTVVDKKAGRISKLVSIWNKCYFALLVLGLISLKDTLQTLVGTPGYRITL
eIF4H FP inh: inhibitors of RNA binding by human eIF4H; Q15056; eIF4H fluorescence polarization binding assay; inhibition, % at 35 µM; hit rate 0.94% among 290,000;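 active = 50% or more with normal probe brightness, or confirmed in later tests; inconclusive = above 50% with abnormal brightness, or retests that disagree; inactive = below 50% or failed in later tests; about a fifth of its hits are not listed in these tables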;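 note: calls also rest on retests at 20 µM and on dose response follow-up; 0% = protein and probe with vehicle and 100% = probe without protein; strong numbers were not always called active; many hits fall short of the cut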
Yeast UUG start: modulators of start codon recognition fidelity in yeast | S. cerevisiae UUG-firefly luciferase reporter, luminescence/redox ratio | activity score, % at 18.7 µM | hit rate 0.13% among 350,000;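 active = replicate mean at a twofold rise or more, about +100% in these data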;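 note: firefly luciferase made from a UUG start codon reports start codon fidelity; reporter light over untreated wells divided by growth signal over untreated wells; some hits fall short of that in this replicate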
Env fusion inh: HIV envelope-mediated fusion inhibition | HeLa-JRFL Env/CEM21 cell fusion, luciferase | inhibition, % at 12.3 µM | hit rate 1.1% among 360,000;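 active = mean replicate inhibition score of at least 50 and every replicate individually at or above 50; inconclusive = only one of the two criteria met; inactive = mean below 50 and not all replicates reaching 50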;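 note: 0% = plate neutral controls and 100% = maraviroc near 300 nM; one replicate is shown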
PABP polyA inh: PABP-poly(A) binding inhibition. hit rate 1% among 290,000. P11940. PABP-poly(A) RNA binding, fluorescence polarization. inhibition, % at 35 µM;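 active = 50% or more with normal probe brightness, or confirmed in later tests; inconclusive = above 50% with abnormal brightness, or retests that disagree; inactive = below 50% or failed in later tests; about a fifth of its hits are not listed in these tables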;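 note: calls also rest on retests at 20 µM and on dose response follow-up; controls were probe without protein and protein plus probe with vehicle; some compounds called inactive have numbers as strong as hits; many hits fall short of the cut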
Target sequence (P11940 whole entry, looked up): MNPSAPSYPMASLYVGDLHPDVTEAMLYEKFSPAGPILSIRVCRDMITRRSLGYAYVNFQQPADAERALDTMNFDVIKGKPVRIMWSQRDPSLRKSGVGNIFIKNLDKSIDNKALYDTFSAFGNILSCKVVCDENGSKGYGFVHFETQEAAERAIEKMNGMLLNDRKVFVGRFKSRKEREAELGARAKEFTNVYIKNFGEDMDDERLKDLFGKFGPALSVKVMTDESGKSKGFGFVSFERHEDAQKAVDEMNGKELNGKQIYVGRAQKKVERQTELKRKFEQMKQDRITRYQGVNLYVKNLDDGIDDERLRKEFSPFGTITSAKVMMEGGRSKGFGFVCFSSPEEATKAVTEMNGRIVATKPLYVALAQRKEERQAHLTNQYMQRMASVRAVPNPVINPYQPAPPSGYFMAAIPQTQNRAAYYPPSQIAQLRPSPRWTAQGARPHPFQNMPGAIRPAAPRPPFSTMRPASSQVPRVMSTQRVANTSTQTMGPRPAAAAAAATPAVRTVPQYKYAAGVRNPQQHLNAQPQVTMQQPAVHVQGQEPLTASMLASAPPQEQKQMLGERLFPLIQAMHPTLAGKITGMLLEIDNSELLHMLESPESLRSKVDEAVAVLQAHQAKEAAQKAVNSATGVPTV
MT1-MMP act inh: inhibitors of human MT1-MMP activation. P50281. HT1080 RFP-PRO-GFP cells, GFP/RFP ratio fluorescence, overnight; percent of plate control window, DMSO zero. GFP/RFP ratio change, % at 20 µM. hit rate 0.061% among 360,000. AID 651647;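 active = GFP/RFP ratio change of at least 30% with cell ATP level not reduced by more than half and red fluorescence within 50% of control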; note: strong numbers were not always called active
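Assay system – RFP-PRO-GFP reporter HT1080 cells · Compound dosing – single dose of 20 µM compound, 1% DMSO final · Incubation – overnight compound exposure at 37 °C · Measure – GFP/RFP fluorescence ratio · Benchmarks – DMSO wells and RFP-L50D-GFP cells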
eIF4H FP inh retest: also measured in eIF4H FP inh; calls as there; inhibition, %; compound at 20 µM; confirmation average;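 mean of two retest wells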
PABP polyA inh retest: second read-out of PABP polyA inh, no call of its own (marks repeat the call); inhibition, %; compound at 20 µM; confirmation repeats;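 mean of two retest wells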
MT1-MMP act inh RFP: further read-out of MT1-MMP act inh, marked with its call; RFP signal change, %; measured here: RFP expression control read;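 0 = vehicle wells; hits needed this value within 50% of zero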
* = called active by the depositor; i = inactive; ? = inconclusive; / = no result given.

SMILES	CSC inhib	Rce1 inh	eIF4H FP inh	Yeast UUG start	Env fusion inh	PABP polyA inh	MT1-MMP act inh	MT1-MMP act inh RFP	others
COc1ccc(C(=O)NCc2nnc(SCC(=O)NCCc3ccccc3)o2)cc1	8	i	-13	-6	-6	-7	8	4
NC(=O)c1c(NC(=O)c2ccncc2)sc2c1CCCC2	/	i	-9	/	-52	-12	1	-11
CCCn1c(=O)c2sccc2n2c(CCCC(=O)NC3CCN(Cc4ccccc4)CC3)nnc12	0	i	-12	-6	-2	-7	2	2
Cc1ccc2nc(CSc3nnc(-c4ccco4)o3)cc(=O)n2c1	1	i	77	/	5	-8	0	-2	eIF4H FP inh retest=-8;PABP polyA inh retest=-1
CNC(=O)[C@@]1(C)C=C[C@@H](Cc2ccccc2)N1C(=O)OC	2	i	6	-4	-30	-6	1	2
COc1ccc(NC(=O)CC(C)CC(=O)NCc2ccccc2)c(OC)c1 (stereo not given)	-9	i	-2	-12	2	13	-2	3
CCCCc1nnc(NC(=O)COC)s1	3	i	-2	-13	-6	-3	-1	0
O=C(CN1CCN(Cc2ccccc2F)C1=O)NCCc1ccc(Cl)cc1	-10	i	-3	-8	-10	5	0	2
CCCCNC(=S)NNC(=O)c1ccco1	-1	i	1	-7	-101	5	4	4
Cc1cc(C(=O)CN2C(=O)NC(Cc3c[nH]c4ccccc34)C2=O)c(C)n1C (stereo not given)	-12	i	-8	2	1	3	12	4
COc1ccc(N2CCN(CCCNC(=O)CCCn3c(=O)[nH]c4ccsc4c3=O)CC2)cc1	14	i	3	-12	-77	-12	1	4
Cc1ccc(S(=O)(=O)NNC(=S)Nc2ccccc2)cc1	12	i	-2	-13	/	17	1	1
CCNC(=S)N(CCN(C)C)Cc1cc2cc3c(cc2[nH]c1=O)OCO3	-1	i	0	-15	-4	3	0	1
O=C(NCC(c1ccco1)N1CCc2ccccc2C1)c1cccc(Br)c1 (stereo not given)	3	i	/	8	1	/	3	1
Cc1ccc(NC(=O)CN2C(=O)NC3(CCCc4ccccc43)C2=O)cc1S(=O)(=O)N1CCOCC1 (stereo not given)	5	i	5	/	-6	-18	-2	-4
CC1CCCC(NC(=O)COC(=O)Cc2ccc(Cl)cc2)C1C (stereo not given)	-19	/	/	-5	/	/	-1	2
COc1ccc(NC(=O)C2C3C=CC4(O3)C2C(=O)N(CCN2CCCCC2C)C4C(=O)NC2CCCC(C)C2C)cc1 (stereo not given)	-12	i	2	4	3	14	3	3
Nc1ccc2oc(-c3ccccc3Cl)nc2c1	-11	i	2	-49	/	120	1	1	eIF4H FP inh retest=1;PABP polyA inh retest=49
COc1ccc(-n2c(C)cc(C(=O)COc3ccc(-n4cnnn4)cc3)c2C)cc1	9	i	-7	-9	/	-3	0	1
Cn1c(=O)[nH]c(=O)c2c1nc(NCc1ccco1)n2Cc1ccccc1Cl	-7	i	-17	/	2	-2	5	1
O=C1CS/C(=N/N=C/c2ccccc2)N1Cc1ccco1	-12	i	-1	/	-18	-6	7	-10
O=C1c2ccccc2C(=O)N1CCCCSc1nnc(-c2ccc(OC(F)F)cc2)o1	-15	i	-10	-12	-14	-1	-3	-3
COc1cccc(CSc2nnc(-c3ccncc3)n2C)c1	-16	i	7	-2	1	5	1	0
CCOc1ccc(OCCC(=O)N(CC)CC(=O)Nc2ccccc2OC)cc1	/	/	/	5	2	/	1	-4
O=C(Nc1ccc([N+](=O)[O-])cn1)C1CC2CCC1C2 (stereo not given)	-3	i	-1	/	/	111	5	0	eIF4H FP inh retest=2;PABP polyA inh retest=5
O=[N+]([O-])c1ccc(-c2ccc(/C=N/c3c(-c4ccco4)nc4ccccn34)o2)cc1	-9	i	?	/	/	60*	-32	7
COc1ccc(N=Nc2nc3cc(Br)c(Br)cc3n2C)c(OC)c1	1	/	?	-16	-23	-13	-96	6
CCN(Cc1ccncc1)Cc1c(O)ccc2ccccc12	/	/	0	-3	19	-11	-2	3
Cc1c(Cl)cccc1NC(=O)CCN1CCN(CCO)CC1	-7	i	-1	-8	-12	4	0	3
O=C1CN(S(=O)(=O)c2ccc(F)cc2)c2ccccc2N1	-8	/	-6	-2	0	-6	11	-3
Clc1ccc(CN(Cc2ccccc2)C(c2cccs2)c2nnnn2C2CCCC2)cc1 (stereo not given)	19	i	-1	-17	94*	-2	-29	-25
O=C(/C=C/c1ccc(Cl)cc1)NCCN1CCOCC1	/	i	-2	-23	-3	-8	7	-1
CO/N=C/NC(=O)NOCc1ncc(C(F)(F)F)cc1Cl	5	i	0	-9	/	3	-1	-3
Clc1ccccc1Cc1noc(CN2CCSCC2)n1	0	i	-1	/	-5	0	0	0
CCc1cc(C(=O)c2ccc(OC)cc2)c(NC(=O)CN2CCCCC2)s1	27	i	-3	-8	14	-8	-6	-8
O=C1/C(=C/c2ccccc2)CSc2sccc21	-13	i	3	8	/	1	0	-1
COc1ccc(C(=O)NCc2nnc(SCC(=O)NO)n2Cc2ccccc2)cc1	24	i	-3	/	18	5	5	3
CCCn1c2ccccc2c2cnn(CC(=O)NCCCOC)c(=O)c21	0	i	-6	-1	2	9	0	1
COC(=O)/C=C1\SC(=NC(=O)c2ccc(-c3ccccc3)cc2)NC1=O	4	/	/	-15	-24	/	-1	0
O=[N+]([O-])c1ccccc1OCCCCN1CCCCC1	-12	i	10	-16	-41	0	15	1
COc1ccc(Nc2nnc(-c3ccc(O)cc3)c3ccccc23)cc1C(N)=O	-2	i	4	/	16	17	-1	4
O=C(NC(Cc1ccc(O)cc1)C(=O)O)/C(=C/c1ccccc1)NC(=O)c1ccccc1 (stereo not given)	-5	i	-17	-12	5	3	-2	-1
Cc1cc(NC(=O)COc2ccc3oc4ccccc4c3c2)no1	-2	i	-3	-6	/	-1	-3	0
O=C(Nc1nncs1)c1cc2c(s1)CCC2	-13	i	8	/	-1	2	0	0
O=C(Nc1ncnc2c1ncn2C1OC(COC(=O)c2ccccc2)C(F)C1O)c1ccccc1 (stereo not given)	/	i	-5	2	/	-6	5	-2

Taken from above (16 entries):
SMILES	CSC inhib	Rce1 inh	eIF4H FP inh	Yeast UUG start	Env fusion inh	PABP polyA inh	MT1-MMP act inh	MT1-MMP act inh RFP	others
CCN(Cc1ccncc1)Cc1c(O)ccc2ccccc12	/	/	0	-3	19	-11	-2	3
Cc1c(Cl)cccc1NC(=O)CCN1CCN(CCO)CC1	-7	i	-1	-8	-12	4	0	3
O=C1CN(S(=O)(=O)c2ccc(F)cc2)c2ccccc2N1	-8	/	-6	-2	0	-6	11	-3
Clc1ccc(CN(Cc2ccccc2)C(c2cccs2)c2nnnn2C2CCCC2)cc1 (stereo not given)	19	i	-1	-17	94*	-2	-29	-25
O=C(/C=C/c1ccc(Cl)cc1)NCCN1CCOCC1	/	i	-2	-23	-3	-8	7	-1
CO/N=C/NC(=O)NOCc1ncc(C(F)(F)F)cc1Cl	5	i	0	-9	/	3	-1	-3
Clc1ccccc1Cc1noc(CN2CCSCC2)n1	0	i	-1	/	-5	0	0	0
CCc1cc(C(=O)c2ccc(OC)cc2)c(NC(=O)CN2CCCCC2)s1	27	i	-3	-8	14	-8	-6	-8
O=C1/C(=C/c2ccccc2)CSc2sccc21	-13	i	3	8	/	1	0	-1
COc1ccc(C(=O)NCc2nnc(SCC(=O)NO)n2Cc2ccccc2)cc1	24	i	-3	/	18	5	5	3
CCCn1c2ccccc2c2cnn(CC(=O)NCCCOC)c(=O)c21	0	i	-6	-1	2	9	0	1
COC(=O)/C=C1\SC(=NC(=O)c2ccc(-c3ccccc3)cc2)NC1=O	4	/	/	-15	-24	/	-1	0
O=[N+]([O-])c1ccccc1OCCCCN1CCCCC1	-12	i	10	-16	-41	0	15	1
COc1ccc(Nc2nnc(-c3ccc(O)cc3)c3ccccc23)cc1C(N)=O	-2	i	4	/	16	17	-1	4
O=C(NC(Cc1ccc(O)cc1)C(=O)O)/C(=C/c1ccccc1)NC(=O)c1ccccc1 (stereo not given)	-5	i	-17	-12	5	3	-2	-1
Cc1cc(NC(=O)COc2ccc3oc4ccccc4c3c2)no1	-2	i	-3	-6	/	-1	-3	0

Other records:
SMILES	CSC inhib	Rce1 inh	eIF4H FP inh	Yeast UUG start	Env fusion inh	PABP polyA inh	MT1-MMP act inh	MT1-MMP act inh RFP	others
O=c1cc(N2CCC3(CC2)OCCO3)[nH]c(=O)n1-c1ccc(Cl)cc1	-7	i	3	-6	/	3	0	1
CC(OC(=O)Cn1cc(C(F)(F)F)ccc1=O)C(=O)N(C)c1ccccc1 (stereo not given)	4	/	/	-13	6	/	1	0
COc1ccccc1NS(=O)(=O)c1ccc(NC(=O)c2nc3nc(C)cc(C(F)F)n3n2)cc1	-11	i	11	-1	-51	2	3	0
Cc1ccc(NC(=O)CSc2nnc(-c3n[nH]c4ccccc34)n2-c2ccccc2)c(C)c1	/	i	-10	/	46	2	-9	-9
CCN(CC)S(=O)(=O)c1cccc(-c2nnc(SCCCC(=O)c3ccccc3)o2)c1	-4	i	12	9	-1	21	3	-7
CC(=O)c1cccc(-c2ccnc3c2CC(C(=O)NCc2ccncc2)O3)c1 (stereo not given)	/	/	/	-34	-27	/	2	3
COc1cccc(/C=C/c2nc(S(=O)(=O)c3ccccc3)c(N(C)C)o2)c1	-7	i	3	-9	1	5	-4	-7
Nc1nc2c(c(=O)[nH]1)C(c1cccc3ccccc13)C1=C(N2)c2ccccc2C1=O (stereo not given)	/	/	12	/	25	-1	-14	-9
COc1cccc(Nc2ccc(C(=O)O)cc2[N+](=O)[O-])c1	-3	/	-3	/	-11	-6	5	1
CCOC(=O)N1CCN(S(=O)(=O)CCNC(=O)c2ccccc2)CC1	-2	i	/	-10	1	/	-3	6
COc1ccc(CNc2nc(Cl)c(C#N)s2)cc1	5	i	-6	/	-7	-5	2	1
CC(CNC(=O)c1ccccc1[N+](=O)[O-])NC(=O)c1ccccc1[N+](=O)[O-] (stereo not given)	-9	i	/	/	7	/	1	7
COc1ccc(OC)c(NC(=O)c2cccc(C)c2[N+](=O)[O-])c1	-8	i	3	/	15	10	0	0
CC(/C=N/NC(=O)c1cc(-c2ccc3ccccc3c2)n[nH]1)=C\c1ccco1	58	i	66	/	-43	10	-2	-2	eIF4H FP inh retest=-20;PABP polyA inh retest=9
CCOC(=O)C1C(=O)OC(C)(C)C1C(C)C(=O)c1ccc(OC)cc1 (stereo not given)	-19	i	-2	-1	0	11	5	5

Screens from PubChem.

The list is partial; count on the stated rates, not on these rows.
